# Vaccinia Venus: qHTS for Stage-Specific Inhibitors of Vaccinia Orthopoxvirus: Venus Reporter Primary qHTS; Vaccinia virus Venus reporter expression, fluorescence; Potency, µM (highest dose often 36.5 µM), inactives show at the top dose activity change, negative = inhibition, hits mostly inhibitors; 0.46% of 330,000 active; active means well fitted inhibition curve with a large enough effect; inconclusive means small, poorly fitted or top-dose-only effect; inactive means no such curve, though single readings can be large or run the other way; tested in A549 cells; note: nearly all actives have a fitted effect of over 30% in size; inactives centre near -10
# VACV mCherry inh: qHTS for Stage-Specific Inhibitors of Vaccinia Orthopoxvirus: mCherry Reporter Primary qHTS | Vaccinia virus mCherry reporter infection, fluorescence; about a quarter of the inactives have no number | Potency, µM (highest dose often 36.5 µM), inactives show at the highest dose activity change, negative = inhibition, usual class: inhibitors | 0.63% of 310,000 active | AID 720579, 2013; active = well fitted inhibition curve with a large enough effect; inconclusive = small, poorly fitted or top-dose-only effect; inactive = no such curve, though single readings can be large or run the other way; tested in A549 cells; note: nearly all actives have a fitted effect of over 35% in size; inactives centre near -10
# An asterisk follows results filed as active; i = inactive; ? = inconclusive; · = no result given; & = joins results of further samples; [ ] = another dose, or the depositor's remark. % is set by controls: 0 for no effect and ±100 for the full control effect; potency is the fitted concentration of half-maximal effect.
SMILES,Vaccinia Venus,VACV mCherry inh
N#CC1(NC(=O)Cn2ncc(Cl)c(Cl)c2=O)CCCCC1,?,?
COC(=O)COc1ccc(S(=O)(=O)N2CCc3ccccc3C2)cc1C,-7%,-15%
Nc1ccc(-c2cc3ccccc3c(=O)o2)cc1,-9%,?
CCOc1ccc(Br)cc1C1C(C(=O)OC)=C(C)NC2=C1C(=O)c1ccccc12 (centres undefined),-3%,-18%
CCCN1C(=O)/C(=C/c2ccncc2)SC1=S,-5%,-13%
CC(C)CCn1c(N)c(C(=O)OCC2CCCO2)c2nc3ccccc3nc21 (centres undefined),-28%,·
CCOc1ccc(C(=O)Nc2cc(OC)ccc2OC)cc1,-1%,-9%
CCCC(=O)Nc1cccc(-c2cn3cccnc3n2)c1,-11%,-28%
CC(C(=O)N1c2ccccc2Sc2ccccc21)n1nnc(-c2cccs2)n1 (centres undefined),1%,-4%
COc1ccc(C(=O)c2[nH]c(N)c(C(=O)NCCc3c[nH]c4ccccc34)c2-c2ccccc2Br)cc1,-21%,-26%
CC(NC(=O)[C@H](C)N1C(=O)N2CCc3c([nH]c4ccccc34)[C@@]2(C)C1=O)c1ccccc1 (some centres undefined),-4%,-3%
Fc1cc(F)c2nc(Nc3nc4cc5c(cc4s3)OCO5)sc2c1,?,-25%
O=C(NC1CCCCCC1)c1c(O)nc2sccn2c1=O,-13%,i
O=C(Nc1ccc(O)c(C(=O)O)c1)c1ccc2c(c1)C(=O)N(CC1CCCO1)C2=O (centres undefined),-10%,i
CCOC(=O)c1c(-n2cccc2)sc2c1CCCC2=O,-17%,0%
CCC/C(=C1/c2ccccc2C(=O)N1c1ccccc1)c1cnc(OC)nc1,-15%,-14%
Cc1ccc(CNC(=O)Cn2nnc(C(=O)Nc3cc(C)ccc3C)c2N)cc1,-15%,-8%
Cc1cccc(NC(=O)c2cccc(C(=O)Nc3cccc(C)c3C)n2)c1C,1%,i
Cc1ccc(-n2ncc3c(=O)n(CC#N)cnc32)cc1C,-6%,·
Cc1ccc(/C=N/NC(=O)c2ccc(-n3cccc3)cc2)o1,3%,-10%
O=C(NCC1CCCCC1)c1ccc(Cl)nc1,-6%,-10%
CCOC(=O)[C@]12Cc3cc(OC)ccc3[C@H]1N(Cc1ccccc1)C(=O)c1ccccc12,?,?
O=c1c2ccccc2n2c(-c3cccc(F)c3)nnc2n1Cc1ccccc1,-2%&-12%,-13%&-9%
CCOC(=O)[C@@H]1[C@H]2COc3ccc(Br)cc3[C@H]2N2C(=O)N(c3ccc(Cl)cc3)C(=O)[C@]12C,-15%,-9%
CCC(C)[C@H](NS(=O)(=O)c1ccc(C)cc1)C(=O)N1CCC(C(=O)N[C@@H](Cc2ccccc2)C(=O)O)CC1 (some centres undefined),-8%,i
CCOc1ccccc1C1NC(=O)NC(C)=C1C(=O)OC1CCCC1C (centres undefined),-25%,·
CC1CCCN(c2nc(-c3ccccc3O)nc3ccccc23)C1 (centres undefined),4%,-5%
COc1ccc(NC(=O)c2ccco2)cc1NC(=O)c1cc2ccccc2o1,-21%,?
CCN(CCCNC(=O)Cn1cc2c(n1)CCCC2)c1cccc(C)c1,-11%,-11%
c1ccc(-n2nc3c(ccc4cnnc43)[nH]2)cc1,-15%,-24%
COc1ccccc1-c1oc2ccccc2c1C#CC1(N)CCCCC1,?,-12%
O=[N+]([O-])c1nccn1CC(O)CN1CC1 (centres undefined),-6%,i
O=c1[nH]c(C2CCN(S(=O)(=O)c3cccc(Cl)c3)CC2)nc2c1nnn2Cc1ccccc1,-29%,-22%
Cc1cc(OCCOCCN(C)CCO)cc(C)c1Cl,-21%,-4%[1.46 µM]
O=C(CC1(O)C(=O)Nc2ccc(Br)cc21)c1ccccc1 (centres undefined),2%,-26%
CCOC(=O)c1cnc2nc(C)[nH]n2c1=O,?,·
O=C1C(=Cc2ccco2)C(=O)c2ccccc21,2%,-15%
CCc1nn2c(=O)cc(COC(=O)c3cccc(NC(=O)COc4ccccc4F)c3)nc2s1,-20%,-20%
O=C(NC1CCCC1)c1ccc(CSc2nc3cccnc3n2Cc2ccccc2F)cc1,-5%,-12%
CC(=O)c1ccc(OCc2cc(C(=O)NC(C)CCn3cccn3)no2)cc1 (centres undefined),-14%,-6%
CCOC(=O)c1c(C)[nH]c(CCC(=O)NC(C)c2ccccc2)c1C (centres undefined),-2%,-4%
COc1ccc(N(CC(=O)N2CCN(Cc3ccc4c(c3)OCO4)CC2)S(C)(=O)=O)cc1OC,-14%,·
CCn1c(SCc2ccccc2)nnc1C1CCN(S(=O)(=O)c2ccc(OC)cc2)CC1,?,?
COc1ccccc1-c1cc2nc(-c3ccccc3)cc(N3CCN(C(=O)c4ccco4)CC3)n2n1,?,?
CCn1nnnc1SCC(=O)NCc1cccs1,-7%,3%
CCCn1c(N)c(N(CCOC)C(=O)CSCC(=O)Nc2ccc(OC)cc2)c(=O)[nH]c1=O,-4%,-9%
CCOc1ccc(C2C=C(c3cccc(OC)c3)Nc3nnnn32)cc1 (centres undefined),-17%,-18%
CCS(=O)(=O)c1ncc(Cl)c(C(=O)Nc2ccc(S(=O)(=O)N3CCC(C)CC3)cc2)n1,18µM*,?

# Entries of single compounds from above:
# Results for CCOc1ccc(C2C=C(c3cccc(OC)c3)Nc3nnnn32)cc1 (centres undefined) : Vaccinia Venus = -17%; VACV mCherry inh = -18%
# Results for CCCn1c(N)c(N(CCOC)C(=O)CSCC(=O)Nc2ccc(OC)cc2)c(=O)[nH]c1=O : Vaccinia Venus = -4%; VACV mCherry inh = -9%

# Next section
SMILES,Vaccinia Venus,VACV mCherry inh
CC(C)Oc1ccc(C(CC(=O)N(C)CCC#N)c2ccc(F)cc2)cc1 (centres undefined),-11%,-21%
O=C(NCCCNC(=O)c1ccccn1)c1cccc(F)c1,1%,-9%
COC(=O)c1c(NC(=O)COc2ccc(C(C)C)cc2)sc2c1CCCC2,4%,1%
O=C(Nc1ccc(C(=O)O)cc1)/C(=C\c1ccc([N+](=O)[O-])cc1)NC(=O)c1ccc(Br)cc1,11%,i
N#CC12C(=O)NC(=O)C1(C#N)C21CCCC1 (centres undefined),-6%,-12%
CCCn1c(N)c(C(=O)CSc2ncnc3sccc23)c(=O)n(C)c1=O,-10%,-15%
Cn1c(=O)n(C)c2cc(CNC(=O)[C@H]3O[C@@H](n4ccc(=O)[nH]c4=O)[C@H](O)[C@@H]3O)ccc21,-3%,30%
Cc1cc(C)c2c(N)c(C(=O)NC3CCCC3)sc2n1,-13%,-15%
Cc1ccc(S(=O)(=O)Nc2c(C)nn(C)c2C)c(C)c1,-20%,-16%
CN(CC(=O)NCCc1ccccn1)S(=O)(=O)c1ccc(Cl)cc1,2%,-6%
O=C1NCC2=C1C(c1ccccc1)Nc1ccccc1N2 (centres undefined),-3%,-13%
O=C(Nc1ncc(Cc2ccccc2Cl)s1)c1ccc([N+](=O)[O-])cc1,-3%,-6%
COc1ccc(N2CCN(C(=O)COC(=O)c3cnccn3)CC2)cc1,-16%,i
CCCNC(=O)C1(C)CCCN(C(=O)c2cc(F)cc(F)c2)C1 (centres undefined),5%,12%
COCCn1nnnc1C(c1ccc(OC)cc1)N1CCC(C)CC1 (centres undefined),-12%,·
Cc1csc(SCC(=O)NCCc2ccc(Cl)cc2)n1,-16%,-21%
O=C(NN1C(=O)C2C3C=CC(C4CC34)C2C1=O)c1cccc(Cl)c1 (centres undefined),-15%,-23%
O=C(Nn1c(C2CCCCC2)nc2ccccc2c1=O)c1ccc([N+](=O)[O-])cc1Cl,-14%,-5%
CC(C)CCNc1nc(N)c([N+](=O)[O-])c(NCCO)n1,-12%[7.34 µM],-3%[7.34 µM]
O=C(CCOc1ccccc1)Nc1ccc([N+](=O)[O-])cc1,-18%,-6%
CCNc1nc(NC(C)C)nc(SCCOC(=O)c2ccccc2)n1,-10%,-17%
O=C(Cc1ccc(F)cc1)N1CCC(c2nc3c(nnn3Cc3ccc(Cl)cc3)c(=O)[nH]2)CC1,-8%,-15%
CCc1nnc(NC(=O)CCC(=O)N2CCN(S(=O)(=O)c3cc(Cl)ccc3OC)CC2)s1,-22%,i
Cc1ccc(O)c(NC(=O)CCS(=O)(=O)c2nc(-c3cccs3)cc(C(F)(F)F)n2)c1,-7%[7.34 µM],-14%[7.34 µM]
CCCS(=O)(=O)N1CCN(Cc2c[nH]c3ccccc23)CC1,3%,?
Cc1cc(C)c(C(=O)OCC(=O)Nc2cccc(S(=O)(=O)N3CCCCC3)c2)c(C)c1,?,?
O=C(NCc1cccc(Cl)c1)c1cccnc1,-9%,-18%
O=C(Nc1ccc(Cl)c(C(F)(F)F)c1)c1ccc2c(c1)CCN2S(=O)(=O)c1ccccc1,?,?
COc1cc(-c2c(OC)cccc2OC)cc2c1OCCN(C(=O)CCn1nc(C)cc1C)C2,-3%,-9%
O=C(C1=C[C@H](c2coc3ccccc3c2=O)C[C@H](OCc2ccc(CO)cc2)O1)N1CCN(Cc2ccc3c(c2)OCO3)CC1,?,-11%
Brc1cccc[n+]1CCCCCC[n+]1ccccc1Br,-12%,-14%
COCC(C)NCC(=O)NC(C)CCc1ccccc1 (centres undefined),-9%,-19%
CC(C)n1nnnc1SCC(=O)Nc1cccc(F)c1,15%,3%
O=S(=O)(Nc1ccc(-c2cn3ccsc3n2)cc1)c1ccc2c(c1)OCCO2,-17%,-28%
O=C(C(=O)N1CCC(Cc2ccccc2)CC1)c1cccc(Br)c1,-21%,?
Cc1ccc(S(=O)(=O)NN=C(c2ccccc2)c2cccs2)cc1,-8%,-6%
CC(C)CC(=O)NC(Nc1ccc([N+](=O)[O-])cc1)C(Cl)(Cl)Cl (centres undefined),?,?
Cc1ccc(Cn2ncc3c(N4CCN(CCc5ccccc5)CC4)ncnc32)cc1,-15%,-25%
COc1ccc(CN2CCNC(=O)C2CC(=O)NCCCn2nnc3ccccc32)cc1C (centres undefined),-11%,i
COc1ccc2c(c1)CCc1c(C(=O)Nc3c(C)nn(Cc4ccccc4)c3C)noc1-2,?,?
Cc1ccc(S(=O)(=O)N2CCCCC2)cc1NC(=O)CN1CC=C(c2ccccc2)CC1,-20%,?
COC(=O)c1ccc2c(=O)n(Cc3ccc(C(=O)NCCCN4CCC(C)CC4)cc3)c(=S)[nH]c2c1,-19%,i
COc1ccc(NC(=O)COc2coc(CN3c4ccccc4CC3C)cc2=O)cc1 (centres undefined),-20%,-30%
O=C(OCC(=O)N1CCOCC1)c1cccc(S(=O)(=O)N2CCCc3ccccc32)c1,-3%,-10%
COc1ccc2cc(-c3nnc(Nc4ccccc4)s3)c(=O)oc2c1,9%,-4%
CCC(=O)Nc1cccc(NC(=O)CN2CCN(c3ccccc3OC)CC2)c1,-15%,·
COc1cccc(CN(C)C(=O)CCN(c2ccccc2)S(=O)(=O)c2ccc(C)cc2)c1OC,-13%,-13%
COc1ccc(C)cc1NC(=O)c1cc(S(=O)(=O)N2CCC(C)CC2)cn1C,-13%,-13%

# 15 structures already listed, ordered by length of the SMILES, descending:
SMILES,Vaccinia Venus,VACV mCherry inh
COC(=O)c1ccc2c(=O)n(Cc3ccc(C(=O)NCCCN4CCC(C)CC4)cc3)c(=S)[nH]c2c1,-19%,i
CCc1nnc(NC(=O)CCC(=O)N2CCN(S(=O)(=O)c3cc(Cl)ccc3OC)CC2)s1,-22%,i
O=C(Nc1ccc(O)c(C(=O)O)c1)c1ccc2c(c1)C(=O)N(CC1CCCO1)C2=O (centres undefined),-10%,i
COc1ccc2c(c1)CCc1c(C(=O)Nc3c(C)nn(Cc4ccccc4)c3C)noc1-2,?,?
CCn1c(SCc2ccccc2)nnc1C1CCN(S(=O)(=O)c2ccc(OC)cc2)CC1,?,?
COc1ccc(C)cc1NC(=O)c1cc(S(=O)(=O)N2CCC(C)CC2)cn1C,-13%,-13%
O=C(Nc1ncc(Cc2ccccc2Cl)s1)c1ccc([N+](=O)[O-])cc1,-3%,-6%
Cc1ccc(CNC(=O)Cn2nnc(C(=O)Nc3cc(C)ccc3C)c2N)cc1,-15%,-8%
COC(=O)c1c(NC(=O)COc2ccc(C(C)C)cc2)sc2c1CCCC2,4%,1%
CCOC(=O)c1c(C)[nH]c(CCC(=O)NC(C)c2ccccc2)c1C (centres undefined),-2%,-4%
Cc1ccc(S(=O)(=O)Nc2c(C)nn(C)c2C)c(C)c1,-20%,-16%
O=C(NC1CCCCCC1)c1c(O)nc2sccn2c1=O,-13%,i
CC(C)n1nnnc1SCC(=O)Nc1cccc(F)c1,15%,3%
O=C1C(=Cc2ccco2)C(=O)c2ccccc21,2%,-15%
Cc1cc(OCCOCCN(C)CCO)cc(C)c1Cl,-21%,-4%[1.46 µM]

# Continued.
SMILES,Vaccinia Venus,VACV mCherry inh
CCCCCCCCCCCCCCCC[n+]1ccc(/C=C/c2c[nH]c3ccccc23)c2ccccc21,i,·
Cc1ccc(NC(=O)Cn2cc(C(=O)c3ccco3)c3ccccc32)cc1C,-12%,-12%
COc1ccc(NCC(=O)N/N=C2\CCCC(C)C2)cc1 (centres undefined),-3%,-18%
CN[C@H]1CCc2cc(OC)c(OC)c(OC)c2-c2ccc(OC)c(=O)cc21,?,?
COc1ccc(CCN2C(=O)c3[nH]nc(-c4ccccc4O)c3C2c2ccccc2)cc1OC (centres undefined),?,-20%
COc1ccc(OC)c(S(=O)(=O)NCC(c2ccco2)N2CCc3ccccc3C2)c1 (centres undefined),-14%,-25%
CCCCN(C=O)c1c(CC)nc2ccc(C(=O)NCCOc3ccc(OC)cc3)cn12,1%,29%

# From PubChem
